Mtb hypoxia inh = Mtb hypoxia fluorescent reporter inhibition; M. tuberculosis hypoxia-regulated fluorescent reporter, fluorescence; fluorescence inhibition, % (concentration not given with the values); hit rate 0.1% among 300,000;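 active means 35 to 45% if threefold the growth effect, above 45% if 1.5-fold the growth effect; inactive means the rest, general growth blockers included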;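 further: wells of about 50 µL received 100 nL stock; 0% = vehicle wells and 100% = reference inhibitor wells; whole bacteria with a GFP reporter of the hypoxia response; strong numbers were not always called active; many hits fall short of the cut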
Autofluor counter = compound fluorescence in toxin protease inhibitor counterscreen; compound autofluorescence counterscreen, microsphere flow cytometry; stronger effect = higher value; fluorescence intensity (no concentration beside the values); hit rate 3.1% among 360,000; AID 624483;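 active means at least 3 SD above the mean of all compounds, about 16000 in these data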;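 further: 100 nL of 1 mM stock went into each well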
PrP UTR inh = inhibition of PrP 5' UTR reporter expression; cell-based PrP 5' UTR mRNA reporter, plate reader; inhibition, % (no concentration beside the values); hit rate 0.35% among 340,000;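 active means every replicate at 50% or more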;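 further: 0 = median of the neutral control wells; tested in H4 reporter cells; numbers are from one replicate; inactives centre near -14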
Sa ugtP lethal = growth inhibition of S. aureus ugtP deletion strain; growth inhibition, % (test concentration not listed); S. aureus RN4220 ugtP deletion, OD600 growth, 16 h; some inactives read as strong as hits; hit rate 0.54% among 330,000; AID 1259309;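 active means z-score under -3 and OD600 up to 0.15 on both plates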;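 further: plate controls were untreated wells for no effect and antibiotic for full effect; wells of about 80 µL received 100 nL stock; the first replicate is given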
BJeLR viability = kills HRASV12-expressing BJeLR cells. BJeLR (HRASV12) viability, CellTiter-Glo ATP luminescence, 48 h; reference of the scale not given here. inhibition, % (test concentration not listed). hit rate 0.17% among 300,000. AID 1554;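 active means replicate mean above 50%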;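 further: 50 nL library stock added to about 25 µL; numbers are from one replicate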
Sa RN4220 lethal = S. aureus RN4220 growth inhibition. hit rate 0.33% among 330,000. inhibition, % (no concentration beside the values). OD600, 16 h;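 active means z-score of -3 or lower and OD600 up to 0.18 on both plates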;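 further: plate controls were untreated cells for no effect and reference antibiotic for full effect; stock transfer was 100 nL into about 80 µL; one replicate is shown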
Mtb hypoxia inh growth = also measured in Mtb hypoxia inh; calls as there; growth inhibition, %; measured here: M. tuberculosis growth (absorbance);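 0% = vehicle and 100% = reference antibiotic; read after six days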
* marks the source's active call; other numbers are inactive results; . = no result given.

SMILES	Mtb hypoxia inh	Mtb hypoxia inh growth	Autofluor counter	PrP UTR inh	Sa ugtP lethal	BJeLR viability	Sa RN4220 lethal
O=C(c1ccccc1)N1CCN(S(=O)(=O)c2cccs2)CC1	-2	-8	5125	-8	8	-3	1.0
COCP(=O)(c1ccccc1)c1ccccc1	-4	1	9746	-25	2	-1	0.3
O=C(NCc1nc2ccccc2[nH]1)c1ccc(Cl)c(S(=O)(=O)N2CCCC2)c1	7	3	3285	-14	-9	-8	7.8
O=c1c(-c2ccc(Br)cc2)[n+]([O-])c2ccccc2n1OCc1ccccc1	3	-5	3864	-2	-2	-2	2.2
CC1=C(C(=O)Nc2ccccc2C(=O)N2CCCCC2)SCCO1	-4	3	5280	-13	-3	-4	-1.4
CCOC(=O)COc1ccc(-c2nnc(-c3ccccc3)o2)cc1	11	9	13910	7	10	5	7.2
CCN1CC2C3C(=O)N(Cc4ccccc4)C(=O)C3[C@](Cc3ccccc3)(C1=O)N2C(=O)c1ccc(Cl)c(Cl)c1 (some centres not stated)	-6	3	.	.	14	.	8.1
CCn1c(C)c(CCC(=O)O)c(=O)n2nc(-c3ccccc3OC)cc12	-9	-3	4717	0	1	-2	1.9
N/C(=N\N=C\c1ccc(O)cc1O)N[N+](=O)[O-]	.	.	4247	-23	.	-8	.
COc1ccc(N2CCN(c3nc4c(C)cccn4c(=O)c3C=C(C#N)C#N)CC2)cc1	-1	8	3693	-9	4	23	2.4
CCS(=O)(=O)c1ccc(N=Nc2ccc(O)c3ncccc23)c(OC)c1	16	5	4297	16	-15	21	2.4
O=C(NNC(=O)c1sccc1-n1cccc1)c1cccc(Cl)c1	.	.	2685	-2	-3	.	8.8
CCOc1cc(CNCCO)cc(Br)c1OCc1ccc(Cl)cc1Cl	25	23	2339	-18	98*	7	100*
O=C(COc1ncnc2sccc12)N1CCN(C(=O)c2ccco2)CC1	1	2	3973	-1	-3	-1	-7.6
CC(C)c1ccc(NC(=O)COC(=O)/C=C/c2cccc(Br)c2)cc1	-5	6	2043	-12	-5	-10	-2.0
Cc1onc(-c2ccc(Cl)cc2Cl)c1-c1csc(NN=Cc2ccccc2Cl)n1	-1	7	.	.	1	.	-0.7
COc1cc2ncnc(NCc3ccccc3Cl)c2cc1OC	9	11	4804	-14	-3	-3	13
Cc1ccc(C(NC(=O)N2CCCC2)C(Cl)Cl)cc1F (configuration not stated)	9	-1	2655	-9	8	-2	1.7
Cc1ccc(C)c(NC(=O)c2ccc(S(=O)(=O)N(C)CC3CCCO3)cc2)c1 (configuration not stated)	5	12	4494	-8	5	0	-6.9
COC(=O)c1cn[nH]c1NC(=S)Nc1ccccc1C	7	7	7926	-35	0	-17	1.6

Individual results from the results shown.
Mtb hypoxia inh growth, COC(=O)c1cn[nH]c1NC(=S)Nc1ccccc1C → 7
Sa RN4220 lethal, CC(C)c1ccc(NC(=O)COC(=O)/C=C/c2cccc(Br)c2)cc1 → -2.0

(listing goes on)
SMILES	Mtb hypoxia inh	Mtb hypoxia inh growth	Autofluor counter	PrP UTR inh	Sa ugtP lethal	BJeLR viability	Sa RN4220 lethal
Cc1cc(C)nc(N2CCCC(C(=O)Nc3nnc(C(C)(C)C)s3)C2)n1 (configuration not stated)	13	0	4188	-47	0	0	6.2
COc1ccc(C(=O)NC(=S)NC2CCCCC2)cc1	-5	13	5484	-26	29	2	-2.3
Cc1cc2c(NCC(C)O)ncnc2s1 (configuration not stated)	7	4	2843	-4	1	2	3.1
Cc1ccc2nc(SCC(=O)Nc3cc(C)on3)[nH]c2c1	7	3	11049	.	-5	-3	-1.8
CN(CCOc1ccc(Cl)cc1)c1ccc(S(=O)(=O)N2CCCCC2)cn1	5	5	24914*	-25	-8	.	5.7
O=c1oc(-c2ccc(Br)o2)nc2ccccc12	6	5	13876	-14	3	4	1.5
Cc1nn(CC(=O)Nc2cccc(Cl)c2)c(=O)c2cc(-c3ccccc3)nn12	-1	1	5666	-11	-1	-8	2.2
CN(Cc1ccccc1)C(=O)CC(=O)N(C)Cc1ccccc1	10	2	3631	-22	8	-3	6.3
COc1ccccc1/C=C/C=Nn1c(-c2cc(-c3ccccc3)n[nH]2)n[nH]c1=S	8	12	.	.	-4	.	21
O=S(=O)(c1ccc(Cl)cc1)N1CCN(c2ncnc3sccc23)CC1	1	6	7785	6	0	.	5.4
CCc1ccccc1NC(=O)NNS(=O)(=O)c1cc(C)ccc1C	6	2	5690	-27	1	0	6.1
COc1ccc(CSc2nncn2C)cc1F	-1	-1	1958	-17	2	-12	2.5
O=C(NN=Cc1ccccc1)c1ccc(OCc2ccccc2)cc1	9	0	.	.	7	.	3.1
Cc1ccc(C2(O)CN3CCC2CC3)cc1 (configuration not stated)	10	4	3738	-18	5	-5	2.7

Random excerpt: 7 compounds from above.
SMILES	Mtb hypoxia inh	Mtb hypoxia inh growth	Autofluor counter	PrP UTR inh	Sa ugtP lethal	BJeLR viability	Sa RN4220 lethal
Cc1nn(CC(=O)Nc2cccc(Cl)c2)c(=O)c2cc(-c3ccccc3)nn12	-1	1	5666	-11	-1	-8	2.2
Cc1ccc(C)c(NC(=O)c2ccc(S(=O)(=O)N(C)CC3CCCO3)cc2)c1 (configuration not stated)	5	12	4494	-8	5	0	-6.9
N/C(=N\N=C\c1ccc(O)cc1O)N[N+](=O)[O-]	.	.	4247	-23	.	-8	.
Cc1ccc(C(NC(=O)N2CCCC2)C(Cl)Cl)cc1F (configuration not stated)	9	-1	2655	-9	8	-2	1.7
COc1ccc(CSc2nncn2C)cc1F	-1	-1	1958	-17	2	-12	2.5
O=C(NCc1nc2ccccc2[nH]1)c1ccc(Cl)c(S(=O)(=O)N2CCCC2)c1	7	3	3285	-14	-9	-8	7.8
CC(C)c1ccc(NC(=O)COC(=O)/C=C/c2cccc(Br)c2)cc1	-5	6	2043	-12	-5	-10	-2.0

Assay outcomes: PubChem, several laboratories

No enrichment for hits; any-hit rate near 4.1%.
